Ecoli growth = blocks Escherichia coli growth. OD600 absorbance (test concentration not listed). 0.21% of 330,000 active. OD600, 23 h; stronger effect = lower value. AID 1053175;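 active means OD600 absorbance below the run mean of sample wells minus 3.6 SD, in any replicate, cut at about 0.56 in these data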;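 further: stock transfer was 300 nL into about 60 µL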
Vif A3G = inhibitors of Vif binding to APOBEC3G peptide, primary screen, biochemical, TR-FRET, GST-Vif 1-94, biotin-A3G peptide, dose response retest (AID 1117319). TR-FRET GST-Vif / biotin-A3G peptide binding; higher % means a stronger effect; test concentration not given here; strong numbers were not always called active. 0.57% of 260,000 active. inhibition, %; hits with a dose series show IC50 in µM;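 active means above the screen mean plus three standard deviations and confirmed in dose response; inconclusive means results disagree or hit not tested in dose response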;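 further: Vif residues 1-94 fused to GST binding biotinylated APOBEC3G peptide 110-148; 0% = full assay without inhibitor and 100% = GST in place of GST-Vif; retest series ran down from 100 µM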
UCH37 DUB inh = human UCH37 deubiquitinating enzyme inhibition; Q9Y5K5; purified proteasome/UCH37, Ub-AMC cleavage fluorescence; inhibition, % (no concentration beside the values); 0.33% of 330,000 active; AID 588478;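 active means mean of two replicates above 20%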;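 further: 0% = compound-free wells with enzyme and 100% = wells lacking proteasome; stock transfer was 100 nL into about 20 µL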
Target sequence (Q9Y5K5 whole entry, looked up): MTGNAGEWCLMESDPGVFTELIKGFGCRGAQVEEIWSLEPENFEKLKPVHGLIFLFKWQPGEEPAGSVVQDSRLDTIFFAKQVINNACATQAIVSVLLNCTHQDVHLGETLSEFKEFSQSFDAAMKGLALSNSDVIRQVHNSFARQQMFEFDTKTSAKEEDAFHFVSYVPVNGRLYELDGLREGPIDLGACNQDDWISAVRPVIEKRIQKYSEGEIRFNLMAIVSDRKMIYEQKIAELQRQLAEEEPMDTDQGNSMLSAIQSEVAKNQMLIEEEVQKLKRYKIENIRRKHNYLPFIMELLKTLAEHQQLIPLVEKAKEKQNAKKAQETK
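assay system = human UCH37 enzyme supplied as purified proteasome complex | amount = proteasome at 0.15 nM in the dispensed enzyme solution | schedule = 30 min compound-proteasome preincubation then 25 min substrate reaction, room temperature | measured by = fluorescence, ex 355 nm, em 460 nm | benchmarks = no-proteasome wells (full inhibition) and compound-free wells (no inhibition)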
RanGTP-Imp inh = disruptors of Ran-importin-beta complex formation – biochemical, FRET, CFP-Ran, YFP-importin-beta, homogeneous, primary screen; cell-free CFP-Ran/YFP-importin-beta FRET ratio; inhibition, % (test concentration not listed); 1.1% of 300,000 active;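 active means most replicates above 15%; inconclusive means exactly half above 15%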;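 further: 0% = DMSO wells and 100% = Ran loaded with GDP instead of GTP; wells of about 40 µL received 100 nL stock; the first replicate is given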
FGF22 binding = binders of recombinant human FGF22 by thermal shift. Q9HCT0. SYPRO orange fluorescence; percent of sucrose octasulfate shift, DMSO zero. calls only at 9.99 µM. 1.5% of 340,000 active. AID 651658;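 active means melting point raised past a set limit in the mean and every replicate; inconclusive means no clear call; three in four hits are not shown here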
Target sequence (Q9HCT0 whole entry, looked up): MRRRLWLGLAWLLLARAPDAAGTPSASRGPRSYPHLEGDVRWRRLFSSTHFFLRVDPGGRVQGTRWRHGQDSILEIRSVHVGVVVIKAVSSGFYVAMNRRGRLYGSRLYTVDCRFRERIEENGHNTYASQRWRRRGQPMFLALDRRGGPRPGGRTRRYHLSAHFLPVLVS
MLL AF4-AF9 inh = MLL-AF4/AF9 protein interaction inhibition; P42568; AlphaScreen, biotin-AF4 peptide binding to FLAG-AF9; inhibition, % at 10 µM; 0.47% of 350,000 active;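 active means every replicate reaching a set inhibition limit, whatever the replicate mean, cut at about 25% in these data; inconclusive means mean inhibition reaches that limit but some replicates miss it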;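 further: 0% = plate neutral control median and 100% = total signal loss; the record names both 10 and 1 µM as test concentration; the first replicate is given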
Target sequence (P42568 whole entry, looked up): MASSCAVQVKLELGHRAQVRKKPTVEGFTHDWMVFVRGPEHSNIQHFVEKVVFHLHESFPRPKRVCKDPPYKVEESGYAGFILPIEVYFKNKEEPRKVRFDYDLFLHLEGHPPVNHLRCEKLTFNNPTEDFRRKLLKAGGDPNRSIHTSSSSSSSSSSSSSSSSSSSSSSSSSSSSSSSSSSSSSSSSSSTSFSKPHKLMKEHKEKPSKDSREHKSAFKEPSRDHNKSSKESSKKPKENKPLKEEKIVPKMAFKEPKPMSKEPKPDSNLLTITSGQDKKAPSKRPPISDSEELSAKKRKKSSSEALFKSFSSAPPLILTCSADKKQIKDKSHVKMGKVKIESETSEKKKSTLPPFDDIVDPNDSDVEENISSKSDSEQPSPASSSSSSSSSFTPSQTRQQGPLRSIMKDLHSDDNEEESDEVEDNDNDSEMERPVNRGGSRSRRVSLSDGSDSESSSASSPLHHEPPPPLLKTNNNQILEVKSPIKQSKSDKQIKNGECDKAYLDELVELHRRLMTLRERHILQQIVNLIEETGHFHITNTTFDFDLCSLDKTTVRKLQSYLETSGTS
HNF4A DNA FP = change in binding of human HNF4 alpha to DNA | P41235 | HNF4a-FITC DNA binding, fluorescence polarization, 1 h | activity change, % at 10 µM | 0.3% of 360,000 active; in the data active means activity change above about 30%, passing the limit was not always enough;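 further: controls were the assay level and a saturating level of protein; the project sought stronger binding though the title names inhibitors; some compounds called inactive have numbers as strong as hits; positive values seem to mean higher polarization but the record does not say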
* = called active by the depositor; i = inactive; ? = inconclusive; . = not tested or not shown; + = active, no number; & = joins results of further samples. This is a subset, so the mix of outcomes need not match the whole.

SMILES | Ecoli growth | Vif A3G | UCH37 DUB inh | RanGTP-Imp inh | FGF22 binding | MLL AF4-AF9 inh | HNF4A DNA FP
O=c1c2cc([N+](=O)[O-])cc([N+](=O)[O-])c2[nH]n1-c1ccccc1 | 0.659 | 5.3% | 18.8 | -1.7 | + | 7.9 | 0.2
COc1ccccc1C(=O)NC(=O)COC(=O)c1nccnc1N | 0.714 | 1.9% | i | . | i | -4.0 | 4.8
Cc1ccc(S(=O)(=O)C2C(=O)N(C)C3(C)CC2c2ccccc2O3)cc1C (centres undefined) | 0.685 | . | 2.6 | -0.5 | i | -0.7 | 5.7
O=C(NC1CC2CCCC(C1)N2C(=S)Nc1ccccc1Cl)C1CC1 (centres undefined) | 0.692 | . | 1.4 | -1.2 | i | 4.2 | 4.2
CN1/C(=C\C(=O)c2ccccc2Cl)c2ccccc2CC1(C)C | 0.704 | . | 10.5 | -3.4 | . | . | -1.3
O=c1c2cn[nH]c2[nH]c(=S)n1-c1cccc2ccccc12 | 0.651 | . | 3.4 | -1.1 | . | . | 0.9
COC(=O)c1ccc(CSc2ncnc3c2nnn3-c2ccc(F)cc2)o1 | 0.73 | 1.5% | 1.7 | -0.1 | . | . | -2.6
CCOC(=O)c1cnc(SCC(=O)Nc2sc(C)c(C)c2C#N)nc1N | 0.725 | -3.8% | 5.9 | 1.4 | . | . | 0.8
Cc1ccc(-c2nc3c4ccccc4ccn3c2Cc2ccccc2C(F)(F)F)cc1 | . | . | . | . | i | 0.2 | 0.2
CC(=O)Oc1ccc(C(=O)Cc2ccc3ccccc3n2)c(O)c1C | 0.678 | . | 2.3 | 2.8 | i | -3.0 | 37.8*
COC(=O)CN1C(=O)COc2ccc(S(=O)(=O)N3CCCCC3)cc21 | . | -2.8% | . | . | i | -0.9 | -2.7
Cc1ccc(C(=O)NCC(=O)NCC(=O)OCC(=O)c2ccc(Br)cc2)cc1 | . | . | -0.6 | -1.5 | . | . | -0.6
CCN(C[C@H]1N[C@@](C)(C(=O)OC)[C@H]2C(=O)N(Cc3ccccc3)C(=O)[C@@H]12)C(=O)c1ccc(C)cc1 | 0.692 | -2.9% | 0.7 | . | i | 1.8 | -1.0
CC(Nc1ccc(Br)cc1)C(=O)N/N=C/c1ccccc1OCc1ccccc1 (centres undefined) | . | 20.1% | . | -13.6 | . | . | 1.9
COCCN1CCN(C(=O)c2cc(COc3cc(C)ccc3C)on2)CC1 | 0.72 | . | 3.6 | -0.5 | . | . | 3.0
CSCCC1NC(=O)N(CC(=O)N2N=C(c3ccc(Cl)cc3)CC2c2ccco2)C1=O (centres undefined) | 0.719 | -5.9% | 2.3 | 2.8 | i | 10.4 | 0.1
O=C(O)c1ccc(NC(=O)c2cn(-c3ccccc3)nc2-c2cccc(Cl)c2)cc1 | 0.699 | -5.8% | -2.6 | -1.1 | i | -0.8 | -1.3
COc1ccc2c(c1OC)C(=O)OC2Nc1ccc(S(=O)(=O)N=C(N)N)cc1 (centres undefined) | . | 1.0% | . | 5.5 | i | -11.1 | 1.5
O=C(Nc1ccc(Cl)cn1)Nc1ccccc1F | 0.759 | 14.6% | -1.3 | 0.3 | . | . | 8.1
COC(=O)C1=C2SC(C)C(=O)N2C(N)=C(C#N)C1c1cc(OC)c(OC)c(OC)c1 (centres undefined) | 0.669 | -0.2% | 3.7 | 6.6 | . | . | 1.7
CCOC(=O)C1=C(C)NC(=O)NC1c1cccc(OC)c1OCc1ccccc1Cl (centres undefined) | 0.694 | 2.3% | 4.3 | -0.7 | . | . | -1.8
O=C(NC1CCN(c2ncccn2)CC1)c1ccccc1F | 0.638 | 5.8% | -1.3 | -0.9 | i | 0.7 | -2.8
COCC(=O)N(CCc1ccc(OC)c(OC)c1)Cc1cc2cc(C)ccc2nc1Cl | 0.679 | -3.3% | -0.7 | -1.6 | . | -1.0 | 1.0
O=C(CSc1nnc(SCc2cccc3ccccc23)s1)N/N=C/C=C/c1ccccc1[N+](=O)[O-] | . | -6.0% | . | 1.2 | . | . | -0.2
COc1ccc(S(N)(=O)=O)cc1C(=O)N(C)CC(=O)Nc1ccc(N2CCOCC2)cc1 | 0.701 | . | 3.8 | 2.2 | i | -0.9 | 2.3

Next section; it opens with the 2 that closed the last part.
SMILES | Ecoli growth | Vif A3G | UCH37 DUB inh | RanGTP-Imp inh | FGF22 binding | MLL AF4-AF9 inh | HNF4A DNA FP
O=C(CSc1nnc(SCc2cccc3ccccc23)s1)N/N=C/C=C/c1ccccc1[N+](=O)[O-] | . | -6.0% | . | 1.2 | . | . | -0.2
COc1ccc(S(N)(=O)=O)cc1C(=O)N(C)CC(=O)Nc1ccc(N2CCOCC2)cc1 | 0.701 | . | 3.8 | 2.2 | i | -0.9 | 2.3
Cc1cccc(CCN(C(=O)c2snc(C(N)=O)c2N)C(C(=O)NCC2CCCO2)c2ccc(F)cc2)c1 (centres undefined) | 0.694 | . | -40.5 | 0.8 | i | 5.4 | 1.6
CCCCCCOC(=O)Cc1c(C)nc(N)[nH]c1=O | 0.66 | 4.6% | 2.3 | -0.2 | i | -5.1 | -1.5
Cc1ccc(S(=O)(=O)c2nnn3c2nc(N2CCC(C(N)=O)CC2)c2ccccc23)cc1C | 0.679 | . | 2.9 | 6.8 | i | -0.4 | 1.7
CC(C)CN(CC(C)C)S(=O)(=O)N1CCC(C(=O)NCCc2ccc(Cl)cc2)CC1 | 0.679 | -5.5% | 0.7 | -4.6 | i | 7.4 | 2.9
Cc1nnc(SCC(=O)N2CCCc3ccccc32)[nH]c1=O | 0.635 | 21.9% | 4.7 | 0.4 | . | . | 1.1
CCc1n[nH]c(=O)c2cc3cc(OC)ccc3n12 | 0.681 | 0.4% | -27.8 | 1.3 | i | -7.9 | 0.1
Cc1ccc(C)c(N(CC(=O)NC2CCCC2)C(=O)c2oc(C(C)(C)C)cc2C)c1 | 0.694 | 0.7% | 4.2 | -3.3 | i | 9.8 | 0.0
CCOC(=O)N1CCN(S(=O)(=O)c2ccc([N+](=O)[O-])cc2)CC1 | 0.715 | . | 2.7 | 0.1 | i | -0.7 | 3.6
Cc1sc2nc(-c3ccccc3F)oc(=O)c2c1C | . | -5.6% | . | . | i | -1.6 | 0.8
O=C1Nc2ccccc2/C1=C/C(=O)c1cccs1 | 0.68 | -3.6% | . | 2.6 | . | . | -0.6
CCCC(C)n1[nH]c(=O)cc1N (centres undefined) | 0.707 | 14.2% | 6.1 | -1.8 | . | . | -0.2
Fc1ccccc1/C=C/c1ccc2ccccc2n1 | 0.676 | 1.6% | -6.0 | -3.9 | . | . | -1.9
CCc1ccc(C(=O)Nc2ccc(OC)c(S(=O)(=O)N3CCOCC3)c2)cc1 | 0.685 | 1.6% | 2.2 | ? | i | 3.1 | -1.8
COc1ccc(C(Nc2cc(C)ccn2)c2ccc3ccc(C)nc3c2O)cc1 (centres undefined) | 0.643 | -4.2% | 1.0 | -2.5 | i | 21.7 | -1.5
CC(C)(C)C(=O)N/C(N)=N/c1nc2ccccc2o1 | 0.665 | -4.1% | 5.6 | 0.2 | i | 4.1 | 0.2
O=C(O)c1cc(S(=O)(=O)Nc2ccc(OCc3ccccc3)cc2)ccc1Br | 0.722 | . | -0.6 | -5.4 | i | 1.4 | 4.3
COc1ccc(-c2ccc(=O)n(CC(=O)Nc3ccc4c(c3)OCCO4)n2)cc1 | 0.689 | -14.9% | -2.1 | 0.6 | i | 0.2 | -0.5
O=C(CCc1nnc2ccc(N3CCC4(CC3)OCCO4)nn12)Nc1ccc(F)cc1 | 0.666 | . | 5.6 | 0.5 | i | -1.7 | 1.1
COc1cc(/C=C/C(=O)OCC(=O)N2CCN(S(=O)(=O)c3ccc(C)cc3C)CC2)cc(Cl)c1OC | 0.684 | 1.8% | -10.2 | . | i | -0.8 | -1.5
O=C(CSCC(=O)Nc1ccccc1)N/N=C/c1c(O)ccc2ccccc12 | . | 16.0% | . | 3.6 | . | . | -0.5
CCOC(=O)Cc1csc(NC(=O)COc2ccc3ccccc3c2)n1 | 0.745 | -2.8% | 2.2 | ? | . | . | -0.1
O=C(NCc1ccccc1)c1ccc(OCC2CCCO2)cc1 (centres undefined) | 0.719 | ? | 1.1 | -0.7 | i | 0.3 | -2.1
C=CCC(CC=C)(C(=O)O)c1ccccc1 | 0.699 | 1.3% | 4.2 | -3.1 | . | . | -2.4
Cc1ccc(NC(=O)CN(c2ccc(C)cc2)S(=O)(=O)c2cccc3nonc23)cc1 | 0.731 | . | 3.2 | -3.2 | i | 8.9 | 0.8
Cn1c(=O)c(C(=O)NNC(=O)c2ccccc2Br)c(O)c2ccccc21 | 0.682 | . | -0.2 | 4.8 | i | -2.7 | -4.2
Next part.
SMILES | Ecoli growth | Vif A3G | UCH37 DUB inh | RanGTP-Imp inh | FGF22 binding | MLL AF4-AF9 inh | HNF4A DNA FP
O=C(CN(Cc1ccccc1)S(=O)(=O)c1ccc(Cl)cc1)NCC1CCCO1 (centres undefined) | 0.665 | . | 2.1 | 5.1 | i | -4.4 | 5.2
CCN1CCCC1CNCc1cccc(OC)c1OCc1ccc(F)cc1 (centres undefined) | 0.679 | . | 1.7 | -0.2 | . | . | -0.5
CCCCN(C)c1ccc([N+](=O)[O-])cc1 | 0.622 | 6.3% | 5.9 | -3.1 | i | -0.2 | 5.3
CC1(C)Cc2c(cnn2-c2ccc(F)cc2)C(NC(=O)c2cnccn2)C1 (centres undefined) | 0.673 | . | 0.9 | 1.4 | i | -1.1 | 0.7
Cc1n[nH]c(C)c1S(=O)(=O)N1CCC(C(=O)N2CCn3c2nc2ccccc23)CC1 | 0.695 | 2.2% | 3.7 | 0.7 | i | 10.6 | 2.2
N#CCCn1cc(/C=C/C(=O)O)c(-c2ccc(F)cc2)n1 | 0.653 | -1.7% | 0.4 | -4.6 | i | -0.2 | 2.1
Cc1nn(CC(=O)NCCN2CCOCC2)c(=O)c2ccccc12 | 0.772 | 21.9% | 2.0 | . | . | . | 2.2
Cc1ccsc1/C=N\NC(=O)c1ccc2c(c1)OCO2 | . | 9.8% | . | -3.1 | . | 0.1 | 3.7
COc1ccc(C(=O)CN2C(=O)c3ccccc3S2(=O)=O)cc1Br | 0.714 | . | -0.6 | ? | i | 0.4 | 5.0
COc1cccc(NC(=O)C2CCN(c3ncccn3)CC2)c1 | 0.669 | 3.9% | -6.9 | -2.9 | . | . | -2.0
O=C(COc1ccc2ccccc2c1)N1c2ccccc2Sc2ccccc21 | 0.713 | -6.2% | 1.9 | -0.4 | . | . | 3.3
Cc1cnc(NC(=O)CN2C(=O)C3CC=CCC3C2=O)s1 (centres undefined) | 0.625 | -0.6% | 1.8 | -4.6 | . | . | 1.3
Nc1ncnc2nc(SCCc3ccccc3)[nH]c12 | 0.661 | -7.3% | 3.7 | ? | . | . | 2.1
CCOc1ccc(CCNS(=O)(=O)c2cn(C)cn2)cc1OCC | 0.718 | . | 3.2 | 0.0 | i | 0.1 | 4.2
CC(=O)c1ccc(S(=O)(=O)N2CCC(Oc3ccc(-n4cnnn4)cc3)CC2)cc1 | 0.678 | -6.4% | 3.2 | -1.8 | i | 0.4 | -2.9
CCOC(=O)c1[nH]c2ccc(Cl)cc2c1-c1ccccc1 | 0.726 | 21.8% | -5.0 | -1.4 | . | . | 1.5
CC(Sc1nc2c([nH]c3ccccc32)c(=O)n1C)c1ccccc1 (centres undefined) | 0.77 | -12.7% | 2.2 | -0.5 | i | -0.7 | -4.9
COc1cc(CC(=O)N(C)CC(=O)Nc2ccc(Cl)c(C(F)(F)F)c2)cc(OC)c1OC | 0.699 | . | 3.4 | -1.4 | i | 0.2 | 1.4
Cc1ccc(C(=O)COc2cccc(NC(=O)c3ccco3)c2)cc1 | 0.733 | -1.5% | 3.4 | -2.4 | . | . | -0.1
C#CCNC(=O)C1=C[C@H](C2CCCCC2)[C@@H](CCCO)[C@H](OCC)O1 | . | 16.4% | 1.5 | 0.1 | i | 3.1&2.0 | -4.4

Assay outcomes from PubChem.
